Screening data: PubChem, Center for Chemical Genomics, University of Michigan
TAR Tat displ: HIV-1 TAR-Tat binding disruption; HIV-1 TAR RNA, Tat peptide displacement FRET; active compounds read high; z-score (concentration not given with the values); hit rate 0.6% among 100,000; AID 1259389;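 note: score is relative to mean and SD of negative controls; some compounds called inactive have numbers as strong as hits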
CDC25B-CDK2 inh: human CDC25B-CDK2/CyclinA binding inhibition; HTRF CDC25B-CDK2/CyclinA binding, anti-His/anti-Flag; active compounds read high; z-score (no concentration beside the values); hit rate 0.72% among 94,000; AID 1259370;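 note: score is relative to mean and SD of negative controls; strong numbers were not always called active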
Numbers without * were called inactive; . = no result given.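 Rule for the calls: active = z-score from 3 up in half or more of its runs; inactive = the rest.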

SMILES	TAR Tat displ	CDC25B-CDK2 inh
O=C(Cn1c(=O)oc2cc(S(=O)(=O)N3CCCC3)ccc21)NCc1cccs1	.	-0.85
Cc1c(C)n(C2CCCCC2)c2ncn3nc(Cc4ccccc4)nc3c12	0.45	-0.12
COc1ccccc1CNC(=O)Nc1noc2c1COc1ccccc1-2	2.18	.
CN1CCN(c2cc(N3CCOCC3)c3c4c(onc24)-c2ccccc2C3=O)CC1	0.12	-1.06
CCOC(=O)C1=C(C)N2CCCN=C2S1	.	-2.1
COc1ccc(C(=O)CN2CCN(c3ccc(C(F)(F)F)cn3)CC2)cc1	.	0.74
CCN1CCN(C(=O)C2CCN(S(=O)(=O)c3ccc4c(c3)NC(=O)C(C)S4)CC2)CC1 (centres undefined)	2.63	.
CCOC(=O)N1CCN(C2CC(=O)N(c3ccc(OC)cc3)C2=O)CC1 (centres undefined)	-0.21	-1.2
NS(=O)(=O)c1ccc(-n2ncc3c(=O)[nH]c(SCC(=O)Nc4nccs4)nc32)cc1	.	-1.17
Cc1ccc(Nc2cc(C)nc3nc(-c4ccco4)nn23)c(C)c1	-8.14	.
O=S(=O)(c1cccc(S(=O)(=O)N2CCN(c3ncccn3)CC2)c1)N1CCCCC1	0.01	-0.46
COc1ccc(/C=N/NC(=O)c2cc(-c3ccc4ccccc4c3)n[nH]2)cc1	.	-3.04
COc1ccc(C2C=C(C(=O)O)Nc3ncnn32)c(OC)c1 (centres undefined)	-0.03	-1.66
Cc1noc(-c2ccc(-c3noc(-c4ccccc4)n3)cc2)n1	1.3	.
C=CCn1c(SCC(=O)O)nc2sc(CC)cc2c1=O	-0.63	-3.34
COC(=O)c1ccc(C2C(C(=O)OCCc3ccccc3)=C(C)NC3=C2C(=O)CCC3)cc1 (centres undefined)	1.93	-1.45
Clc1ccc(Nc2nc3ccccc3c3nncn23)cc1	1.14	-3.58
O=C(NC1CCCC1)c1ccc2c(=O)nc3c(-c4cccc(F)c4)n[nH]n3c2c1	-0.82	.
CC(C)N=c1cc2n(-c3ccc(Cl)cc3)c3ccccc3nc-2cc1Nc1ccc(Cl)cc1	-4.63	.
Cc1nccn1CC1CCc2c(c3ccccc3n2C)C1=O (centres undefined)	1.02	.
CCOc1cc(-c2nc(-c3cccc(C)c3)no2)cc(OCC)c1OCC	.	0.43
CCOC(=O)C1=C(C)Nc2nc3ccccc3n2C1c1ccc(C)cc1 (centres undefined)	0.13	-1.06
CCN1CCc2c(sc(-n3cccc3)c2CNC(=O)Nc2cc(C)cc(C)c2)C1	-7.35	.
Cc1cc(-c2ccc(C)c(S(=O)(=O)NCC3CCN(Cc4ccco4)CC3)c2)on1	1.53	.
Cc1cc(F)ccc1Nc1nc2ccc(Cl)cc2n2cnnc12	1.35	0.03

Copied from above for reference:
SMILES	TAR Tat displ	CDC25B-CDK2 inh
CCOC(=O)N1CCN(C2CC(=O)N(c3ccc(OC)cc3)C2=O)CC1 (centres undefined)	-0.21	-1.2
NS(=O)(=O)c1ccc(-n2ncc3c(=O)[nH]c(SCC(=O)Nc4nccs4)nc32)cc1	.	-1.17
Cc1ccc(Nc2cc(C)nc3nc(-c4ccco4)nn23)c(C)c1	-8.14	.
O=S(=O)(c1cccc(S(=O)(=O)N2CCN(c3ncccn3)CC2)c1)N1CCCCC1	0.01	-0.46
COc1ccc(/C=N/NC(=O)c2cc(-c3ccc4ccccc4c3)n[nH]2)cc1	.	-3.04
COc1ccc(C2C=C(C(=O)O)Nc3ncnn32)c(OC)c1 (centres undefined)	-0.03	-1.66
Cc1noc(-c2ccc(-c3noc(-c4ccccc4)n3)cc2)n1	1.3	.
C=CCn1c(SCC(=O)O)nc2sc(CC)cc2c1=O	-0.63	-3.34
COC(=O)c1ccc(C2C(C(=O)OCCc3ccccc3)=C(C)NC3=C2C(=O)CCC3)cc1 (centres undefined)	1.93	-1.45
Clc1ccc(Nc2nc3ccccc3c3nncn23)cc1	1.14	-3.58
O=C(NC1CCCC1)c1ccc2c(=O)nc3c(-c4cccc(F)c4)n[nH]n3c2c1	-0.82	.
CC(C)N=c1cc2n(-c3ccc(Cl)cc3)c3ccccc3nc-2cc1Nc1ccc(Cl)cc1	-4.63	.
Cc1nccn1CC1CCc2c(c3ccccc3n2C)C1=O (centres undefined)	1.02	.
CCOc1cc(-c2nc(-c3cccc(C)c3)no2)cc(OCC)c1OCC	.	0.43
CCOC(=O)C1=C(C)Nc2nc3ccccc3n2C1c1ccc(C)cc1 (centres undefined)	0.13	-1.06
CCN1CCc2c(sc(-n3cccc3)c2CNC(=O)Nc2cc(C)cc(C)c2)C1	-7.35	.

Following part:
SMILES	TAR Tat displ	CDC25B-CDK2 inh
CC(C)(C)NC(=O)c1cc2ccccc2o1	0.37	0.44
Cc1cc(C)cc(-n2c(SCC(N)=O)nc3c(oc4ccccc43)c2=O)c1	3.01	-2.26
CC1CCC(NC(=O)CN2C(=O)COc3ccc(S(=O)(=O)NC4CCCC4)cc32)CC1 (centres undefined)	1.34	.
CCOC(=O)c1c(C)oc2ccc(NS(=O)(=O)c3cccc([N+](=O)[O-])c3)cc12	.	-0.82
Cn1c(NCCCCO)nc2c1c(=O)n(Cc1ccc(Cl)cc1)c(=O)n2C	0.42	-0.36
CC1CCN(C(=O)C2CCN(S(=O)(=O)c3ccc4c(c3)oc(=O)n4C)CC2)CC1	1.88	1.57
Cc1cc(C)cc(NC(=O)c2sc(=S)n3c2[nH]c(=O)c2sccc23)c1	0.45	.
CC(=O)c1cc2c(cc1NS(=O)(=O)c1ccc3c(c1)NC(=O)C(C)C(=O)N3)OCO2 (centres undefined)	.	-1.37
O=c1c(Nc2ccc(Cl)cc2F)c(-c2ccccc2)c1=O	0.22	.
O=c1c2ccccc2c(=O)n2n1CCCC2	.	-1.3
C/C(CC(C)(C)Nc1ccccc1)=N\O	.	14.1*
O=C1c2ccccc2C(=O)C1(c1ccccc1)N1CCCCC1	0.52	-0.39
CC(C)S(=O)(=O)c1cscc1N/C=C(/C#N)C(=O)C1CC1	.	0.29
Cc1ccccc1-c1noc2ncnc(NCCN3CCOCC3)c12	2.51	.
CSc1ccc(S(=O)(=O)NCc2ccncc2)cc1	0.09	-2.18
CCOCCCNC(=O)c1cnc(N2CCN(C)CC2)nc1C	2.55	.
COc1cc(OC)c(NS(=O)(=O)c2ccc3oc(=O)c4ncn(C)c4c3c2)cc1Cl	0.61	.
Cc1cccn2cc(CCNS(=O)(=O)c3ccc(Oc4ccccc4)cc3)nc12	.	-0.82
c1ccc(Oc2cccc3cccnc23)nc1	.	-1.38
N#CC1=C(N)OC2=C(C(=O)CC(c3ccccc3)C2)C1c1ccsc1 (centres undefined)	.	-0.16
CC(C)(C)C(=O)NCCNC(=O)c1nonc1N	-0.13	-1.18
Cn1c(N)c(C(=O)CSc2ncnc3nc[nH]c23)c(=O)n(C)c1=O	.	-2.16
COc1ccc(-c2c(Nc3cc(OC)cc(OC)c3)c(=O)c2=O)cc1	1.78	.
O=C1C2CCCN2C(c2ccc(F)cc2)N1c1cccc(Cl)c1 (centres undefined)	1.03	0.34
O=C(c1ccccc1F)N1CCOCC1	.	-1.51
Next part:
SMILES	TAR Tat displ	CDC25B-CDK2 inh
c1cncc(CSc2ccc(-c3cccs3)nn2)c1	0.68	.
O=C(COCc1cc(-c2cccs2)on1)Nc1cc(F)ccc1F	0.08	.
O=C(CC1C(=O)NCCN1C(=O)c1c(F)cccc1Cl)Nc1cc(Cl)ccc1Cl (centres undefined)	.	-0.75
CCOC(=O)C1=C(C)Nc2ncnn2C1c1cc(OC)ccc1OC (centres undefined)	1.17	.
CCCCS(=O)(=O)c1oc(-c2ccc(F)cc2)nc1S(=O)(=O)c1ccc(C)cc1	0.69	-2.02
O=C(Nc1c(C(=O)N2CCN(c3ncccn3)CC2)oc2ccccc12)c1c(F)cccc1F	1.58	.
COc1cnc(CSc2nc(C)cc(C)n2)cc1OCC(=O)Nc1cc(C)on1	1.22	.
COc1cc(OC)c(C2CC(c3ccc4c(c3)OCO4)Nc3nnnn32)cc1OC (centres undefined)	.	-2.03
CS(=O)(=O)Nc1ccc(CCc2nc3ccccc3n2-c2ccccc2)cc1	0.97	.
CCCCCCOc1ccc(OC(=O)c2ccncc2)cc1	1.23	-1.49
Cc1ccc(Cn2cnc3onc(C)c3c2=O)cc1	2.65	.
O=C(NCCN1CCOCC1)C1CCCN(c2nnc(-n3cccc3)s2)C1 (centres undefined)	1.23	-2.29
COC(=O)Cn1c(SCCOc2ccccc2)nc2ccccc21	1.51	-0.5
Cc1oc(C)c2c(=O)cc(-c3ccc4c(c3)OCO4)cc(OC(=O)c3ccc(Cl)cc3)c12	-0.63	-1.4
Cc1ccc(S(=O)(=O)N2CCCC(c3nc(-c4cccc(Br)c4)no3)C2)cc1 (centres undefined)	1.96	.
CC1Cn2cc(C(=O)N3CCN(c4ccccc4)CC3)c(=O)c3c(Cl)ccc(c32)O1 (centres undefined)	1.11	.
O=C(O)c1ccc(CS(=O)c2ccc(F)cc2)o1 (centres undefined)	1.49	.
CN1C(=O)N(C)C2C1NC(=O)N2CC(=O)O (centres undefined)	1.56	-2.06
COc1ccc(NS(=O)(=O)c2cc(-c3onc(C)c3C)ccc2C)cc1OC	1.96	.
O=S(=O)(N/N=C/c1c[nH]c2ccccc12)c1ccc(Cl)cc1	.	-1.88
O=C(C1CCCN(S(=O)(=O)c2ccc3[nH]c(=O)ccc3c2)C1)N1CCc2ccccc21 (centres undefined)	-1.45	.
COC(=O)c1ccc(-c2nc(=S)c3c([nH]2)Oc2c(cccc2OC)C3)cc1	0.71	0.22
COc1ccc(-c2oc3ccc(C)cc3c(=O)c2O)cc1OC	-0.46	-2.11
O=C(Nc1c(C(=O)c2ccc(Cl)cc2)oc2ccccc12)c1cccnc1	-0.77	.
CCN(CC)c1ccc2nnc(CCC(=O)NCc3ccc4c(c3)OCO4)n2n1	1.54	.
(list continues)
SMILES	TAR Tat displ	CDC25B-CDK2 inh
COC(=O)/C(=C/C(=O)c1ccc(Cl)cc1)Nc1ccccc1	.	-1.55
Fc1ccccc1CSc1cc(-c2ccccc2)ncn1	0.06	0.89
Cc1cc2c(c(Sc3ccc(Cl)cc3)n1)C(=O)NC2=O	.	-2.11
CCOC(=O)CNc1ncnc2onc(C)c12	0.58	.
CCn1c(Cn2cccn2)nc2cc(NC(=O)c3ccco3)ccc21	1.12	-1.22
CCN1CCN(C(=O)c2cc3c(s2)-c2ccccc2SC3)CC1	-0.03	-1.59
CCOC(=O)c1cc(C#N)c(Oc2ccccc2)nc1C(F)(F)F	.	22.4*
CS(=O)(=O)c1noc(-c2cccs2)c1C#N	.	-1.11
COc1ccc2c(c1)CC(C(=O)Nc1cc(F)ccc1F)CO2 (centres undefined)	-0.09	.
CC1=CC(C)(C)N(C(=O)CSc2nc(C)cc(C)n2)c2ccccc21	-1.05	-0.12
O=C(Oc1ccc(Cl)cc1Cl)c1csnn1	.	2.36
Cn1c(=O)c2c(-c3ccc(Br)cc3)n(-c3ccccc3O)cc2n(C)c1=O	0.84	-0.15
COC(=O)CSc1nc(NC(C)=O)nc(C)c1Br	-0.54	-1.77
CCC(SC1=Nc2ccccc2C2=NC(C)C(=O)N12)C(=O)Nc1ccccc1F (centres undefined)	-1.4	.
O=C(NCc1ccc(F)cc1)N1CCSc2ncccc21	-0.05	.
Cc1ccc(S(=O)(=O)c2nnn3c2nc(N2CCCC2)c2sccc23)cc1C	0.06	.
Cc1ccc(-c2nc(NCC(C)C)c3ccccc3n2)cc1	.	-0.62
Cc1cc2c3c([nH]c2cc1S(=O)(=O)N1CCCCC1C)CC(C)(C)CC3=O (centres undefined)	0.76	.
CC(=O)/C(C=Nc1ccc(F)cc1)=C(\C)O	.	0.93
O=S(=O)(c1ccccc1)c1nc(-c2ccco2)oc1N1CCOCC1	0.23	-0.05
Cc1ccsc1CCNC(=O)CCCc1nnc2n(C)c(=O)c3sccc3n12	-1.13	.
CCOC(=O)c1sc(N2CCOCC2)nc1N	0.64	-0.17
CC(C)c1ccc(NC(=O)CSc2nc(-c3ccco3)nc3cc(=O)[nH]n23)cc1	0.64	.
Cc1ccccc1OCC(=O)OCc1cc(=O)n2nc(C3CCCCC3)sc2n1	0.63	.
CSc1cccc(NC(=O)C(=O)NCCc2ccccn2)c1	.	3.09
Remaining list, next part.
SMILES	TAR Tat displ	CDC25B-CDK2 inh
CCC(C)NC(=O)C1CC(c2ccc(F)cc2)=NO1 (centres undefined)	1.3	1.51
c1ccn2cc(CSc3nncn4c3cc3occc34)nc2c1	-13.5	.
Cc1cc(C(=O)Nc2ccccc2)oc(=O)c1	.	-0.53
COc1ccc([N+](=O)[O-])c(OC)c1C(=O)Nc1ccccc1C(=O)NCC1CC1	.	-1.67
CC(=O)O[C@H]1CC[C@@]2(C)C(=CCC3C2CC[C@@]2(C)C3CC[C@@H]2C(C)CCCC(C)C)C1 (some centres undefined)	2.52	.
COc1ccc2scc(N3CCN(c4ccccc4)CC3)c(=O)c2c1	-0.59	.
COc1ccc(Oc2ccc(-c3ccn[nH]3)cc2)cc1	.	0.21
O=C1N(Cc2ccc(Br)cc2)c2ccccc2S(=O)(=O)N1c1ccc(F)cc1	-0.67	.
COCCCNC(=O)c1c(NC(=O)c2nc(SC)ncc2Cl)sc2c1CCCC2	1.39	-3.02
CCOc1cccc2cc3c(=O)n(-c4ccc(Br)cc4)nc-3oc12	0.38	-1.62
CCN(Cc1ccccc1)S(=O)(=O)c1ccc(-c2cc(C)no2)s1	1.16	.
Nc1c(-c2nc(-c3ccccc3)no2)nnn1-c1ccc(Br)cc1	-0.41	.
CC(C)c1ccc(S(=O)(=O)N2CCCC(c3nc(-c4ccc(F)cc4)no3)C2)cc1 (centres undefined)	2.34	.
Cc1ccc2nc(-c3cccs3)c(Nc3ccc4c(c3)OCCO4)n2c1	.	-1.7
CC1(C)CC(=O)C(C2(O)C(=O)c3ccccc3C2=O)C(=O)C1	1.24	-1.52
CC(C)CNC(=O)c1nn2c(C(F)(F)F)cc(-c3cccs3)nc2c1Cl	-10.3	-1.46
O=C(NC1CCCC1)c1nnc(Cc2c(F)cccc2Cl)o1	0.69	-0.01
COc1ccc(-c2csc3ncnc(N4CCCCC4)c23)cc1	-0.39	.
Cc1c(Nc2nc3nonc3nc2Nc2cccc(Cl)c2)c(=O)n(-c2ccccc2)n1C	-0.85	-1.3
C=CCN1C(=O)c2cccc3c(N4CCCCC4)ccc(c23)C1=O	-9.47	-2.29
